# Screening data deposited in PubChem BioAssay by several laboratories.
# Mtb H37Rv: M. tuberculosis H37Rv growth inhibitors, H37Rv strain (AID 1626) | M. tuberculosis H37Rv growth inhibition; higher % means a stronger effect | inhibition, % at 10 µM, or IC50 in µM where a hit was titrated | 0.95% of 220,000 active;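 active = confirmed in a dose series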;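 note: bacteria incubated seven days before Alamar blue readout; 0% = bacteria only wells and 100% = bacteria with antibiotic wells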
# Mtb bLac sens: beta-lactam sensitization of Mtb H37Rv. M. tuberculosis H37Rv growth with meropenem, percent inhibition; hits of this screen are not shown here. inhibition, % at 25 µM. 0.27% of 330,000 active;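 active = about 74% or more and at least 40 points above the plate without the antibiotic, then above 30% in a dose series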;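 note: growth measured after seven days incubation then overnight dye step; 0% = bacteria only wells and 100% = bacteria with antibiotic; twin plates without the antibiotic show which effects depend on it; some results filed as inactive read as strong as hits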
# RecA splice inh: blocks M. tuberculosis RecA intein splicing; inhibition, %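 (about 9 µM by stock and volumes)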; 0.75% of 290,000 active; cell-free RecA intein splicing, fluorescence; in the data active = inhibition above about 30%;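 note: 0% = vehicle wells and 100% = reference inhibitor control wells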
# Target sequence (P9WHJ3 whole entry, looked up, canonical isoform): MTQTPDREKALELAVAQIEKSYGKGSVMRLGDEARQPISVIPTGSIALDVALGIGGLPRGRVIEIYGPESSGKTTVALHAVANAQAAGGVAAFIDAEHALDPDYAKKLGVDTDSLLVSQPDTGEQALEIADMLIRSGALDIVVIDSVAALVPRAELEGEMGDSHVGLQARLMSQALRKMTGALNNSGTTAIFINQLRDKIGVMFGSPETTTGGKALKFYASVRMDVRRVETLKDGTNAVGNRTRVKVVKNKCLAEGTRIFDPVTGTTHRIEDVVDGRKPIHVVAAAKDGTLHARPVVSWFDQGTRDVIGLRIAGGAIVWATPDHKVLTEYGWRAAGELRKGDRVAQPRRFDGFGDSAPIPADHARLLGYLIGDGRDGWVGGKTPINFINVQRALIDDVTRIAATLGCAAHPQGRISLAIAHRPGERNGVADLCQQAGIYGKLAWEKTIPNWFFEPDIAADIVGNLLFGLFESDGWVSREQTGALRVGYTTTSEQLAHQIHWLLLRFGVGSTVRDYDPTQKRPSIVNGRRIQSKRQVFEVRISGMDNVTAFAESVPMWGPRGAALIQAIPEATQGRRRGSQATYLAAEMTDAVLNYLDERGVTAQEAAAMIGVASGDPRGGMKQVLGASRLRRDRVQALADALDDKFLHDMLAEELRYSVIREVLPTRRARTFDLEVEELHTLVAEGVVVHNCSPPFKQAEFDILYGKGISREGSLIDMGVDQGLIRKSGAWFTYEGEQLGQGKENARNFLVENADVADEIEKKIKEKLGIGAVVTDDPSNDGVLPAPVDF
# Arbovirus anti: arbovirus infection inhibition; arbovirus infection cell-based antiviral screen; inhibition, % at 10 µM; 0.37% of 200,000 active; AID 1251;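 active = inhibition from about 30%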;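 note: bluetongue infection of BSR cells; cell survival read as ATP light after 72 h; 0% = infected wells without compound and 100% = uninfected wells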
# YopH PTP inh: blocks Yersinia enterocolitica YopH tyrosine phosphatase. fluorescence Ex485/Em525. 0.16% of 140,000 active. inhibition, %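 (about 10 µM by stock and volumes)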;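 active = inhibition of 50% or more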;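 note: controls were vehicle for no effect and minimum signal wells for full effect; inactives centre near -20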
# Arbovirus anti repeat: recorded beside Arbovirus anti, whose call it bears; inhibition, %; measured here: 10K subset replicate screen; many hits read low in the repeat;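 first of two repeat runs on a subset; 0% = infected and 100% = uninfected wells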
# Active calls of the source: *; / = no result given. A portion of the library. The share of hits here may be higher or lower than overall.
SMILES,Mtb H37Rv,Mtb bLac sens,RecA splice inh,Arbovirus anti,YopH PTP inh,others
CC(C)Cc1nnc(NC(=O)CCC(=O)N2CC(C)CC(C)C2)s1 (centres undefined),/,1,-1.4,/,/,
COc1ccc(NC(=O)CN(c2ccc(OC)cc2)S(=O)(=O)c2c(C)nn(C)c2C)cc1,/,3,2.4,/,/,
O=C(NC1CCN(C(=O)NCc2ccccc2)CC1)c1ccccc1,/,-6,-0.4,/,/,
CCN(CC)S(=O)(=O)c1ccc(C)c(NC(=O)CNCc2ccccc2OC)c1,/,5,-1.7,/,/,
S=C(NCC1CCCO1)Nc1cc(Cl)c(Cl)cc1Cl (centres undefined),-8%,0,9.3,2,/,
CCCNC(=O)c1onc(CSc2ccc(F)cc2)c1C(=O)NCCOC,/,-6,3.6,/,/,
CCCCN1C(=O)NC(=O)/C(=C/c2cnc(SC)nc2)C1=O,-5%,-5,-1.6,2,-23,
c1cncc(-c2nnc3n2N=C(c2cccs2)CS3)c1,-3%,3,2.4,2,10,
CC(=O)NNS(=O)(=O)c1scc(S(=O)(=O)c2ccc(Cl)cc2)c1C,/,-1,5.3,/,/,
CCn1cc(CNC(=O)/C=C/c2ccc([N+](=O)[O-])cc2)c(C)n1,0%,-3,-2.9,3,-36,
CCC(=O)N1c2ccc(S(=O)(=O)CCC(=O)NCCC3=CCCCC3)cc2CC1C (centres undefined),3%,1,5.4,-1,-33,
CN1C(=O)CC(n2c(CO)nc3ccccc32)C1=O (centres undefined),5%,8,/,12,20,
COc1cc(C)c(-c2nc(CN3C[C@@H]4C[C@@H](C3)c3cccc(=O)n3C4)c(C)o2)cc1C,10%,1,5.1,4,/,
COc1ccccc1/C=C/C(=O)Nc1nc(N)n(-c2ccccc2)n1,-3%,-3,0.7,/,/,
NC(=O)c1ccc(NC(=S)NCc2ccco2)cc1,-8%,-4,3.6,8,/,
CC1=NN(c2ccc(Cl)c(C(=O)O)c2)C(=O)C1,4%,-2,95*,-5,-11,
Cc1cccc(C2c3[nH]c4ccccc4c3CCN2Cc2cnn(-c3ccc(F)cc3)c2)n1 (centres undefined),4%,1,0.9,-1,/,
N#C/C(=C1/C(=O)Nc2ccc(Br)cc21)c1ccccn1,2%,2,1.4,-10,/,
CC(=O)Oc1ccc(C(=O)Nc2cc(C)on2)cc1,/,-3,7.1,/,/,
COc1ccccc1CNC(=O)Cc1c[nH]c2ccccc12,/,-2,3.9,/,/,
COc1ccc(/C=C/C(=O)c2ccccc2)cc1COc1ccc(F)cc1,-1%,1,41*,4,-17,
CCOC(=O)C1C(=O)C=C(c2ccc(Br)cc2)CC1c1ccco1 (centres undefined),-1%,-3,14,-12,-7,
NC(=O)CSc1nc2ccccc2n1-c1ccccc1,5%,5,0.1,1,36,Arbovirus anti repeat=-5
CC(=O)Oc1ccccc1-n1c(C)nc(=O)c(-c2ccccc2)c1C,-9%,-4,0.9,/,/,
COc1ccccc1CNC(=S)NCCc1ccccc1,-2%,2,3.2,19,-10,
CCOC(=O)C1CCN(c2c(Nc3ccc(C)c(C)c3)c(=O)c2=O)CC1,-1%,-9,-0.5,/,/,
CCN1/C(=C2\C(=O)N(C)C(=S)N2C)C=Cc2ccccc21,2%,11,1.5,-3,10,
O=C(Cn1cnc2ccccc2c1=O)Nc1ccc(S(=O)(=O)N2CCOCC2)cc1,7%,6,-0.7,7,/,
O=C(COc1ccccc1)NCc1nnc(SCC(=O)Nc2nccs2)n1-c1ccccc1,-9%,1,1.7,-2,-29,Arbovirus anti repeat=-4
NC(=S)NC1CC2CC1C1C=CCC21 (centres undefined),-6%,-10,-1.0,/,/,
Cc1ccc(S(=O)(=O)Nc2ccc(S(=O)(=O)Nc3cc(C)nc(C)n3)cc2)cc1,0%,1,-0.8,14,/,
COc1ccc(S(=O)(=O)/C(C#N)=C/Nc2cccc(F)c2)cc1,/,1,-1.2,/,/,
CCOc1ccc(S(=O)(=O)NN2Cc3ccccc3C2=N)cc1,3%,18,2.4,-2,/,
Cc1c(Cl)cccc1NC(=O)NNC(=O)CCc1ccccc1,/,7,-1.0,/,/,
COc1ccc(OC(C)C(=O)NCc2cccnc2)cc1 (centres undefined),1%,-2,1.3,14,-16,
COc1ccc(NC(=O)COc2ccccc2)c(OC)c1,3%,68,3.5,4,11,
O=C(COC(=O)CC1CC2CCC1C2)Nc1cc([N+](=O)[O-])ccc1F (centres undefined),-4%,7,12,-1,/,
COc1ccc(Cl)cc1NC(=O)NC(C)C(C)(C)C (centres undefined),-2%,-10,-1.8,0,/,
Cc1ccc(C(=O)N2CCN(c3ccc(NC(=O)c4ccc(Br)o4)cc3)CC2)cc1,3%,99,-0.3,-38,-11,
N/C(=N\OC(=O)c1cccc(Cl)c1)c1ccncc1,/,-2,5.0,-2,/,

# A portion of the results above, for reference:
SMILES,Mtb H37Rv,Mtb bLac sens,RecA splice inh,Arbovirus anti,YopH PTP inh,others
NC(=O)CSc1nc2ccccc2n1-c1ccccc1,5%,5,0.1,1,36,Arbovirus anti repeat=-5
CC(=O)Oc1ccccc1-n1c(C)nc(=O)c(-c2ccccc2)c1C,-9%,-4,0.9,/,/,
COc1ccccc1CNC(=S)NCCc1ccccc1,-2%,2,3.2,19,-10,

# In the list so far, these contain a cyano group.
SMILES,Mtb H37Rv,Mtb bLac sens,RecA splice inh,Arbovirus anti,YopH PTP inh,others
N#C/C(=C1/C(=O)Nc2ccc(Br)cc21)c1ccccn1,2%,2,1.4,-10,/,
COc1ccc(S(=O)(=O)/C(C#N)=C/Nc2cccc(F)c2)cc1,/,1,-1.2,/,/,

# Following part
SMILES,Mtb H37Rv,Mtb bLac sens,RecA splice inh,Arbovirus anti,YopH PTP inh,others
CCOC(=O)c1sc(NC(=O)C(OC(C)=O)c2ccccc2)nc1C (centres undefined),-4%,0,-2.5,0,-21,
COc1ccc(OC)c(/C(O)=C/C(=O)C(=O)Nc2cc(C)ccc2OC)c1,2%,13,-0.1,0,-23,
O=c1c2cnn(-c3ccccc3)c2nnn1Cc1ccccn1,2%,-13,0.2,-9,-27,
COc1ccc(/C=N/NC(=O)c2cc(C(C)(C)C)[nH]n2)cc1COc1ccc(F)cc1F,22%,20,11,-6,/,
O=C(COC(=O)CNC(=O)C12CC3CC(CC(C3)C1)C2)Nc1ccccc1,0%,-3,-2.2,3,9,
N/C(=N\OC(=O)CC(c1ccccc1)c1ccccc1)c1cccnc1,3%,1,-0.8,5,/,
CC(=O)N1CC=CC1(CC(C)C)C(=O)NCCN1CCOCC1 (centres undefined),5%,-2,-0.1,10,-11,
O=C(COc1ccccc1)c1cn(Cc2ccccc2)c2ccccc12,7%,-3,17,-5,-28,
NS(=O)(=O)c1cc2c(cc1Cl)NC(c1ccccc1OCC(=O)O)NS2(=O)=O (centres undefined),/,1,0.2,/,/,
Cn1c2c(c(=O)n(C)c1=O)CN(CCCN1CCOCC1)CN2,-6%,-8,-3.1,9,-30,
O=C1C(Cl)=C(NCC2CCCO2)C(=O)N1CCc1ccccc1 (centres undefined),4%,-12,4.0,1,1,
CSc1ccccc1NC(=O)C(=O)c1c[nH]c2ccccc12,1%,6,0.0,-3,/,
COc1ccc(CN2C(=O)c3cccnc3C2=O)cc1S(=O)(=O)N1CCCCC1,/,-9,3.1,/,/,
O=C(Nc1nc(-c2cc(F)ccc2F)cs1)c1cccc(N2C(=O)CCC2=O)c1,/,-12,1.6,/,/,
CC(C)(C)N1C(=O)[C@H]2[C@@H](c3ccc(Br)cc3)N3C(=O)N(c4cccc(F)c4)C(=O)[C@@]3(Cc3ccccc3)[C@H]2C1=O,/,-6,6.1,/,/,
CS(=O)(=O)N1CCC(C(=O)Nc2ccccc2F)CC1,-4%,7,3.5,-1,-20,
Cc1cccc(CN(C)CCc2ccccn2)c1,0%,0,0.7,1,-27,
COC(=O)c1ccccc1NC(=O)CSc1nc(N)cc(=O)[nH]1,-2%,3,-0.7,2,/,
CCn1c(SCC(=O)NNC(=S)Nc2ccc(C)cc2)nnc1-c1ccc(Cl)cc1,-6%,5,0.0,-6,-24,
CCn1c(=O)c(C(=O)Nc2ccsc2C(=O)OC)c(O)c2ccccc21,4%,-5,0.3,-16,-17,

# Entries shown so far that contain a nitro group on carbon (2):
SMILES,Mtb H37Rv,Mtb bLac sens,RecA splice inh,Arbovirus anti,YopH PTP inh,others
CCn1cc(CNC(=O)/C=C/c2ccc([N+](=O)[O-])cc2)c(C)n1,0%,-3,-2.9,3,-36,
O=C(COC(=O)CC1CC2CCC1C2)Nc1cc([N+](=O)[O-])ccc1F (centres undefined),-4%,7,12,-1,/,

# Carrying on.
SMILES,Mtb H37Rv,Mtb bLac sens,RecA splice inh,Arbovirus anti,YopH PTP inh,others
O=C(c1cnn(C(=O)COc2ccc(Cl)cc2)c1)c1ccccc1O,8%,-3,1.6,-5,-30,
O=C(O)c1cccc(N/N=C/c2ccc(-c3ccccc3)cc2)c1,-2%,/,3.6,4,/,
O=C1c2ccccc2C2(c3ccccc3)NCCN12 (centres undefined),-8%,-8,-0.8,1,-31,
Cc1ccc(CNC(=O)CCS(=O)(=O)c2cc3c(cc2C)NC(=O)CO3)cc1,/,5,-2.6,/,/,
CC1C=CCC2C(=O)N(c3cccc(C(=O)NCc4ccccc4)c3)C(=O)C12 (centres undefined),/,-2,-5.7,/,/,
c1cncc(Nc2nc(-c3ccncc3)cs2)c1,0%,0,0.8,12,-11,
CCN(CC)c1ccc(NC(=O)COC(=O)c2ccc3ccccc3n2)cc1,-12%,-7,/,3,1,
O=C(NC1CCCC1)c1ccc(Cl)c(S(=O)(=O)N2CCCCC2)c1,/,-7,15,/,/,
COc1ccc(/C=C/C(=O)Nc2cccc(C(C)=O)c2)cc1,15%,2,2.2,7,-22,
CC(C)(C)[C@H]1C=C(C(=O)NCc2ccccc2)O[C@@H](OCCCCO)C1,-5%,-13,2.0,/,/,

# Of the compounds above, these contain two or more sulfur atoms.
SMILES,Mtb H37Rv,Mtb bLac sens,RecA splice inh,Arbovirus anti,YopH PTP inh,others
c1cncc(-c2nnc3n2N=C(c2cccs2)CS3)c1,-3%,3,2.4,2,10,
CC(=O)NNS(=O)(=O)c1scc(S(=O)(=O)c2ccc(Cl)cc2)c1C,/,-1,5.3,/,/,
O=C(COc1ccccc1)NCc1nnc(SCC(=O)Nc2nccs2)n1-c1ccccc1,-9%,1,1.7,-2,-29,Arbovirus anti repeat=-4
Cc1ccc(S(=O)(=O)Nc2ccc(S(=O)(=O)Nc3cc(C)nc(C)n3)cc2)cc1,0%,1,-0.8,14,/,
NS(=O)(=O)c1cc2c(cc1Cl)NC(c1ccccc1OCC(=O)O)NS2(=O)=O (centres undefined),/,1,0.2,/,/,
CCn1c(SCC(=O)NNC(=S)Nc2ccc(C)cc2)nnc1-c1ccc(Cl)cc1,-6%,5,0.0,-6,-24,

# Continued:
SMILES,Mtb H37Rv,Mtb bLac sens,RecA splice inh,Arbovirus anti,YopH PTP inh,others
Cc1ccc(C)c(NC(=S)NC2CC3CCC(C2)N3Cc2ccco2)c1 (centres undefined),-4%,2,1.7,3,-1,
O=C(COc1ccc(Br)cc1)N1CCNC1=O,/,1,-0.8,/,/,
Cc1cccc(N2CCN(C(=O)c3ccc4c(c3)NC(=O)C(CSCc3cccc(F)c3)N4)CC2C)c1 (centres undefined),/,-4,16,/,/,
CC(=O)NC(Cc1cccc(C)c1)C(=O)NC1CCN(c2ncccc2[N+](=O)[O-])CC1 (centres undefined),-2%,-1,-0.9,5,-9,
COc1cccc(CNS(=O)(=O)c2cc3c(cc2C)NC(=O)CO3)c1,/,3,-5.5,/,/,
Cc1cc(C)c(S(=O)(=O)c2cc(F)ccc2C)c(Cl)n1,/,0,-0.7,/,/,
COC(=O)C(CCSC)NC(=O)C12CC3CC(CC(C3)C1)C2 (centres undefined),5%,1,-10,-1,-12,
Nc1nc(SCC(=O)O)[nH]c(=O)c1NC(=O)c1ccco1,/,-1,-2.4,/,/,
O=C(CN1C(=O)c2cccc3cccc1c23)Nc1ccccc1,1%,-9,-14,10,/,
CC1CCC(NC(=O)CCNS(=O)(=O)c2ccccc2)CC1 (centres undefined),/,-5,-2.8,/,/,
CCCn1c(C)cc(/C=C(\C#N)C(=O)OCC(=O)Nc2cc(OC)c(OC)c(OC)c2)c1C,-8%,-6,-0.1,-7,-15,
O=C(NCc1ccccc1)c1ccc(CSc2ccccc2)o1,-3%,-4,1.9,-7,/,
O=C(CN1C(=O)NC2(CCCc3ccccc32)C1=O)NCc1ccco1 (centres undefined),2%,-5,-1.8,0,-33,
O=C(CCCc1nc2ccccc2s1)NNC(=O)CCN1CCN(Cc2ccccc2)CC1,6%,-7,0.8,2,/,
Cc1cccc(C)c1C(=NCCN(C)C)c1ccccc1,/,-6,2.1,/,/,
Cc1cccc(OCCN2C(=O)c3ccccc3C2=O)c1,6%,0,1.6,0,/,
